# High-throughput results from PubChem.
# A1 apoptosis 2 = A1 inhibition read as caspase activation; 24,000 tested, under 10 active; MEF A1-2A-BIM cells, caspase-Glo luminescence, 3 h; percent of clofoctol response, DMSO zero; caspase activation, % (no concentration beside the values); in the data active = caspase activation above about 5.9%; inconclusive = no clear call, values can overlap the other calls; inactive = below about 2.2%;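 note: wells of about 30 µL received 50 nL stock; the first replicate is given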
#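 Test system – A1-2A-BIM-expressing MEF cells · Input – 2500 cells/well · Medium – RPMI-1640 growth medium with 10% FBS · Compound dosing – 50 nL pinned compound · Timing – 3 h compound exposure at 37 °C · Technique – Caspase-Glo luminescence (DEVD substrate) · Evaluation – Caspase-3/7 activity from luminescence increase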
# Starred values were filed as active, the others as inactive; u = inconclusive.
SMILES,A1 apoptosis 2
C[C@H](CO)N1C[C@H](C)[C@@H](CN(C)C(=O)Nc2ccccc2)Oc2c(NC(=O)CCCCCC(=O)Nc3ccccc3N)cccc2C1=O,0.3
C[C@H](CO)N1C[C@H](C)[C@H](CN(C)S(=O)(=O)c2ccccc2)Oc2ccc(NS(=O)(=O)c3cn(C)cn3)cc2CC1=O,-0.6
COc1ccc(S(=O)(=O)Nc2ccc3c(c2)C(=O)N([C@H](C)CO)C[C@H](C)[C@H](CN(C)C(=O)C2CCCCC2)OCCCC[C@H](C)O3)cc1,0.3
C[C@@H]1CN([C@@H](C)CO)C(=O)c2cc(NC(=O)c3ccncc3)ccc2O[C@@H](C)CCCCO[C@H]1CN(C)C(=O)Nc1ccc(C(F)(F)F)cc1,-0.3
Cc1nc(S(=O)(=O)NC[C@@H]2CCCN(Cc3ccc(OCCO)cc3)C2)cn1C,0.1
COc1ccc(S(=O)(=O)Nc2ccc3c(c2)C(=O)N([C@H](C)CO)C[C@H](C)[C@@H](CN(C)Cc2ccc(C(=O)Nc4ccccc4N)cc2)O3)cc1,0.7
C[C@@H]1CCCCO[C@@H](CN(C)S(=O)(=O)c2ccc(F)cc2)[C@@H](C)CN([C@H](C)CO)C(=O)c2cc(NC(=O)Nc3ccc4c(c3)OCO4)ccc2O1,-0.4
C[C@H]1CN([C@@H](C)CO)C(=O)Cc2cc(NC(=O)Nc3ccc4c(c3)OCO4)ccc2O[C@@H]1CN(C)C(=O)Nc1ccc2c(c1)OCO2,0.7
CNC[C@@H]1Oc2ccc(NC(=O)Nc3ccc(OC)cc3)cc2CC(=O)N([C@@H](C)CO)C[C@@H]1C,0.6
O=C(O)C1=C[C@@H](C2CCCCC2)C[C@@H](OCc2ccc(CO)cc2)O1,0.0
C[C@H]1CN([C@@H](C)CO)C(=O)c2cccc(NC(=O)C3CC3)c2O[C@@H]1CN(C)Cc1ccccc1,0.0
COc1ccc(CN(C)C[C@H]2Oc3ccc(NS(=O)(=O)c4ccc(F)cc4)cc3CC(=O)N([C@@H](C)CO)C[C@H]2C)cc1,-1.1
CC(C)NC(=O)N(C)C[C@H]1Oc2ccc(NS(=O)(=O)c3cccs3)cc2C(=O)N([C@H](C)CO)C[C@@H]1C,-0.2
CCO[C@H]1OC(C(=O)NCc2nc3ccccc3[nH]2)=C[C@@H](c2cn(C(C)=O)c3ccccc23)[C@@H]1CCCO,0.9
C[C@H]1CN([C@@H](C)CO)C(=O)c2cc(NC(=O)C3CC3)ccc2O[C@@H]1CN(C)C(=O)Nc1cccc2ccccc12,-0.1
C[C@@H]1CN([C@@H](C)CO)C(=O)c2cccc(NS(=O)(=O)c3ccc(Cl)cc3)c2O[C@H]1CN(C)C(=O)Nc1cccc2ccccc12,-1.8
C[C@@H]1CCCCO[C@H](CN(C)C(=O)c2ccccc2)[C@H](C)CN([C@@H](C)CO)C(=O)c2cc(NC(=O)Nc3ccc4c(c3)OCO4)ccc2O1,0.0
C[C@@H]1CN([C@H](C)CO)C(=O)c2cc(NC(=O)Cc3cn(C)c4ccccc34)ccc2O[C@H]1CN(C)S(=O)(=O)c1ccccc1,1.6
C[C@@H]1CN([C@H](C)CO)C(=O)c2cccc(NS(=O)(=O)c3cn(C)cn3)c2O[C@H]1CN(C)Cc1ccncc1,0.5
C[C@@H]1CN([C@H](C)CO)C(=O)c2cc(NC(=O)C3CCCCC3)ccc2O[C@H]1CN(C)S(=O)(=O)c1ccc(F)cc1,1.5

# An excerpt of these results, as labelled records.
SMILES: C[C@H]1CN([C@@H](C)CO)C(=O)c2cc(NC(=O)C3CC3)ccc2O[C@@H]1CN(C)C(=O)Nc1cccc2ccccc12
  A1 apoptosis 2: -0.1
SMILES: C[C@@H]1CN([C@@H](C)CO)C(=O)c2cccc(NS(=O)(=O)c3ccc(Cl)cc3)c2O[C@H]1CN(C)C(=O)Nc1cccc2ccccc12
  A1 apoptosis 2: -1.8

# Next section
SMILES,A1 apoptosis 2
CC(=O)n1cc([C@@H]2C=C(C(=O)N3CCN(Cc4ccc5c(c4)OCO5)CC3)O[C@H](OCCCCO)C2)c2ccccc21,-1.0
C[C@@H]1CN([C@H](C)CO)C(=O)c2cccc(NS(=O)(=O)c3cccs3)c2O[C@@H]1CN(C)S(=O)(=O)c1cccs1,-0.7
C[C@H]1CCCCO[C@H](CN(C)Cc2ccc3c(c2)OCO3)[C@@H](C)CN([C@@H](C)CO)C(=O)c2cc(NC(=O)Nc3ccc(C(F)(F)F)cc3)ccc2O1,u
C[C@@H]1CCCCO[C@H](CN(C)C(=O)CCCN(C)C)[C@H](C)CN([C@@H](C)CO)C(=O)c2cc(NC(=O)C3CCCCC3)ccc2O1,1.3
C[C@H]1CN([C@@H](C)CO)C(=O)c2cccc(NC(=O)c3ccc(-c4nccs4)cc3)c2O[C@H]1CN(C)Cc1ccc2c(c1)OCO2,-0.4
COc1ccc(CN(C)C[C@H]2OCCCC[C@@H](C)Oc3ccc(NC(=O)c4ccccc4)cc3C(=O)N([C@@H](C)CO)C[C@@H]2C)cc1,0.6
C[C@@H]1CCCCO[C@H](CN(C)C(=O)Nc2ccc(C(F)(F)F)cc2)[C@@H](C)CN([C@@H](C)CO)C(=O)c2cc(NS(=O)(=O)c3cccs3)ccc2O1,-0.5
C[C@H](CO)N1C[C@H](C)[C@@H](CN(C)C(=O)Nc2ccccc2)Oc2ccc(NC(=O)Nc3cccc4ccccc34)cc2CC1=O,0.2
CC(C)COC(=O)N(C)C[C@H]1OCc2cnnn2CCCC(=O)N([C@@H](C)CO)C[C@@H]1C,0.3
C[C@H]1CN([C@@H](C)CO)C(=O)c2cccc(NS(C)(=O)=O)c2O[C@H]1CN(C)C,-1.0
C[C@H]1CN([C@@H](C)CO)C(=O)Cc2cc(NS(=O)(=O)c3ccc(Cl)cc3)ccc2O[C@H]1CN(C)Cc1ccc(Oc2ccccc2)cc1,-1.2
C[C@@H]1CCCCO[C@H](CN(C)C(=O)c2ccncc2)[C@@H](C)CN([C@@H](C)CO)C(=O)c2cc(NC(=O)NC3CCCCC3)ccc2O1,0.7
C[C@@H]1CCCCO[C@H](CN(C)S(=O)(=O)c2ccccc2)[C@@H](C)CN([C@H](C)CO)C(=O)c2cc(NC(=O)Nc3ccccc3)ccc2O1,0.8
CN1CCN(C(=O)C2=C[C@H](C(C)(C)C)C[C@H](OCc3ccc(CO)cc3)O2)CC1,-0.4
C[C@H](CO)N1C[C@H](C)[C@H](CN(C)Cc2ccc(C(F)(F)F)cc2)OCCCC[C@H](C)Oc2ccc(NC(=O)C3CCCCC3)cc2C1=O,1.3
NC(=O)COc1ccccc1/C=N/NC(=O)c1cccc(C(=O)NO)c1,1.3
CNC[C@@H]1Oc2ccc(NS(=O)(=O)c3ccccc3)cc2C(=O)N([C@H](C)CO)C[C@H]1C,-0.3
C[C@H](CO)N1C[C@H](C)[C@@H](CN(C)Cc2ccc(C(F)(F)F)cc2)Oc2ccc(NC(=O)Nc3ccc(C(F)(F)F)cc3)cc2C1=O,-0.8
COc1ccc(NC(=O)Nc2ccc3c(c2)C(=O)N([C@H](C)CO)C[C@@H](C)[C@@H](CN(C)Cc2ccccc2)OCCCC[C@H](C)O3)cc1,-1.3
C[C@@H]1CN([C@H](C)CO)C(=O)Cc2cc(NS(=O)(=O)c3ccc(F)cc3)ccc2O[C@H]1CN(C)S(=O)(=O)c1ccccc1,1.0
C[C@H](CO)N1C[C@H](C)[C@@H](CN(C)Cc2ccc3c(c2)OCO3)Oc2ccc(NC(=O)c3ccncc3)cc2C1=O,0.4
C[C@@H]1CCCCO[C@@H](CN(C)C(=O)Nc2cccc3ccccc23)[C@@H](C)CN([C@H](C)CO)C(=O)c2cc(NC(=O)Nc3ccccc3)ccc2O1,0.8
C[C@@H]1CN([C@H](C)CO)C(=O)c2cc(NC(=O)Nc3ccc4c(c3)OCO4)ccc2O[C@H]1CN(C)C(=O)Nc1ccc(C(F)(F)F)cc1,-0.7
C[C@H](CO)N1C[C@H](C)[C@H](CN(C)C(=O)Nc2ccc(C(F)(F)F)cc2)Oc2ccc(NC(=O)CCN3CCOCC3)cc2C1=O,-0.4
C[C@@H]1CN([C@@H](C)CO)C(=O)CCCn2cc(nn2)CO[C@@H]1CN(C)S(=O)(=O)c1cn(C)cn1,0.2
COc1ccc(NC(=O)N(C)C[C@H]2OCCCC[C@H](C)Oc3ccc(NC(=O)c4ccccc4)cc3C(=O)N([C@@H](C)CO)C[C@H]2C)cc1,0.1
CC(C)=CCc1cc(/C=C2\OC(=O)C(c3cc4c(cc3O)OC(C)(C)CC4)C2=O)ccc1O (stereo not given),-0.4
COc1ccc(S(=O)(=O)Nc2ccc3c(c2)C(=O)N([C@H](C)CO)C[C@H](C)[C@H](CN(C)C(=O)Nc2ccc4c(c2)OCO4)OCCCC[C@@H](C)O3)cc1,-1.0
C[C@@H]1CN([C@H](C)CO)C(=O)c2cc(N(C)C)ccc2O[C@@H](C)CCCCO[C@H]1CN(C)C(=O)NC1CCCCC1,1.4
C[C@@H]1CN([C@@H](C)CO)C(=O)Cc2cc(NC(=O)CCC(F)(F)F)ccc2O[C@@H]1CN(C)S(=O)(=O)c1ccccc1,0.2
C[C@H](CO)N1C[C@H](C)[C@H](CN(C)C)Oc2ccc(NS(=O)(=O)c3cn(C)cn3)cc2CC1=O,0.5
Cc1noc(C)c1NC(=O)N(C)C[C@@H]1OCCCC[C@@H](C)Oc2ccc(NC(=O)Nc3ccccc3)cc2C(=O)N([C@H](C)CO)C[C@@H]1C,-0.6
C[C@@H]1CN([C@@H](C)CO)C(=O)CCCn2cc(nn2)CO[C@H]1CN(C)C(=O)C1CC1,-0.2
COc1ccc(S(=O)(=O)N(C)C[C@H]2OCCCC[C@@H](C)Oc3ccc(NS(=O)(=O)c4ccccc4)cc3C(=O)N([C@@H](C)CO)C[C@@H]2C)cc1,-1.7
C[C@H](CO)N1C[C@H](C)[C@H](CN(C)Cc2ccc(Cl)c(Cl)c2)Oc2ccc(NS(=O)(=O)c3cn(C)cn3)cc2CC1=O,-0.2
Cc1ccc(S(=O)(=O)Nc2ccc3c(c2)C(=O)N([C@@H](C)CO)C[C@H](C)[C@H](CN(C)Cc2ccc(C(=O)O)cc2)OCCCC[C@@H](C)O3)cc1,1.1
C[C@@H]1CN([C@@H](C)CO)C(=O)c2cccc(NC(=O)C3CC3)c2O[C@H]1CN(C)Cc1ccc(C(=O)Nc2ccccc2N)cc1,-0.2
C[C@@H]1CCCCO[C@H](CN(C)C(=O)Nc2ccc(C(F)(F)F)cc2)[C@@H](C)CN([C@@H](C)CO)C(=O)c2cc(NS(=O)(=O)c3ccc(Cl)cc3)ccc2O1,-0.5
Cc1noc(C)c1NC(=O)N(C)C[C@H]1Oc2ccc(NC(=O)Cc3ccccc3)cc2C(=O)N([C@@H](C)CO)C[C@@H]1C,0.0
Cc1noc(C)c1S(=O)(=O)Nc1ccc2c(c1)C(=O)N([C@H](C)CO)C[C@@H](C)[C@@H](CN(C)C(=O)Cc1ccccc1)OCCCC[C@H](C)O2,-1.1

# Five compounds already listed, sorted by molar mass, smallest number first.
SMILES,A1 apoptosis 2
CC(C)=CCc1cc(/C=C2\OC(=O)C(c3cc4c(cc3O)OC(C)(C)CC4)C2=O)ccc1O (stereo not given),-0.4
C[C@H](CO)N1C[C@H](C)[C@H](CN(C)C)Oc2ccc(NS(=O)(=O)c3cn(C)cn3)cc2CC1=O,0.5
C[C@@H]1CCCCO[C@H](CN(C)C(=O)c2ccncc2)[C@@H](C)CN([C@@H](C)CO)C(=O)c2cc(NC(=O)NC3CCCCC3)ccc2O1,0.7
C[C@@H]1CCCCO[C@H](CN(C)C(=O)c2ccccc2)[C@H](C)CN([C@@H](C)CO)C(=O)c2cc(NC(=O)Nc3ccc4c(c3)OCO4)ccc2O1,0.0
COc1ccc(S(=O)(=O)Nc2ccc3c(c2)C(=O)N([C@H](C)CO)C[C@H](C)[C@@H](CN(C)Cc2ccc(C(=O)Nc4ccccc4N)cc2)O3)cc1,0.7

# Remaining list, next part.
SMILES,A1 apoptosis 2
O=C(C1=C[C@H](c2ccccc2)C[C@H](OCc2ccc(CO)cc2)O1)N1CCOCC1,1.0
C[C@H]1CN([C@@H](C)CO)C(=O)c2cc(NS(C)(=O)=O)ccc2O[C@H]1CN(C)Cc1ccc(Oc2ccccc2)cc1,0.3
C[C@@H]1CN([C@@H](C)CO)C(=O)c2cc(NS(=O)(=O)c3ccc(F)cc3)ccc2O[C@H]1CN(C)Cc1ccc(Cl)c(Cl)c1,0.1
C[C@@H]1CN([C@H](C)CO)C(=O)c2cccc(NC(=O)c3ccc(-c4nccs4)cc3)c2O[C@H]1CN(C)S(=O)(=O)c1ccccc1,-0.5
C[C@@H]1CN([C@H](C)CO)C(=O)c2cc(NC(=O)NC3CCCCC3)ccc2O[C@@H]1CN(C)Cc1ccc(C(=O)Nc2ccccc2N)cc1,0.8
COc1ccc(S(=O)(=O)N(C)C[C@@H]2Oc3c(NC(=O)CCCCCC(=O)Nc4ccccc4N)cccc3C(=O)N([C@H](C)CO)C[C@@H]2C)cc1,-0.5
Cc1noc(C)c1S(=O)(=O)Nc1cccc2c1O[C@@H](CN(C)Cc1ccc(Oc3ccccc3)cc1)[C@@H](C)CN([C@@H](C)CO)C2=O,-0.5
C[C@@H]1CN([C@H](C)CO)C(=O)c2cc(NC(=O)Nc3ccc(F)cc3)ccc2O[C@@H](C)CCCCO[C@H]1CN(C)S(=O)(=O)c1cn(C)cn1,0.2
CN(C)CCCOc1ccc(/C=N/NC(=O)CCCCCC(=O)NO)cc1,0.7
CCCNC(=O)Cc1ccc(N2C(=O)CSC2c2ccccc2)cc1 (stereo not given),0.2
COC(=O)C(CC#Cc1ccc2c(c1)[C@]1(C(=O)N2)[C@H](C(=O)NC[C@H](O)c2ccccc2)[C@H]2C(=O)O[C@H](c3ccccc3)[C@H](c3ccccc3)N2[C@@H]1c1ccc(O)cc1)C(=O)OC,1.3

# Some of the compounds tested (hit frequency here may not be typical).
